Vaccinia inh – blocks a specific stage of Vaccinia orthopoxvirus infection, primary screen, cell-based, single point; activity change (mCherry), % (test concentration not listed); Vaccinia-infected cells, mCherry/Venus stage reporter fluorescence; hits give low values; some inactives read as strong as hits; 89,000 tested, 0.01% active;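 active means mCherry past -33% and 40 or more points under the early reporter, replicates agreeing; inconclusive means past -33% without that gap or agreement; tested in A549 cells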;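 further: scaled between vehicle wells and reference inhibitor wells; 23 nL library stock went into each well; one replicate is shown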
Vaccinia inh Venus – recorded beside Vaccinia inh, whose call it bears; activity change (Venus), %; measured here: Venus reporter, other viral stage;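 negative = less Venus signal; first of two replicates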
An asterisk follows results filed as active; ? = inconclusive; nt = not tested or not shown. The list is partial. The share of hits here may be higher or lower than overall.

Sample of the layout:
SMILES | Vaccinia inh | Vaccinia inh Venus
C[C@@H]1CN([C@@H](C)CO)C(=O)Cc2cc(N(C)C)ccc2O[C@@H]1CN(C)C(=O)Nc1ccc2c(c1)OCO2 | -7 | -1
Cc1cc(C(=O)Nc2cccc3c2O[C@@H](CN(C)S(=O)(=O)c2cccs2)[C@@H](C)CN([C@H](C)CO)C3=O)n(C)n1 | 7 | 4

The listing, from the first entry:
SMILES | Vaccinia inh | Vaccinia inh Venus
C[C@@H]1CN([C@@H](C)CO)C(=O)Cc2cc(N(C)C)ccc2O[C@@H]1CN(C)C(=O)Nc1ccc2c(c1)OCO2 | -7 | -1
Cc1cc(C(=O)Nc2cccc3c2O[C@@H](CN(C)S(=O)(=O)c2cccs2)[C@@H](C)CN([C@H](C)CO)C3=O)n(C)n1 | 7 | 4
CO[C@@H]1CN(C)C(=O)c2cc(NC(=O)C3CCCC3)ccc2OC[C@H](C)N(C(=O)CC2CC2)C[C@@H]1C | -1 | 12
COc1cccc(NC(=O)N2C[C@H](O)COC[C@@H]3O[C@H](CC(=O)NCCCN4CCOCC4)CC[C@H]32)c1 | 23 | 8
Cc1noc(C)c1NC(=O)Nc1ccc2c(c1)C(=O)N([C@H](C)CO)C[C@H](C)[C@@H](CN(C)S(=O)(=O)c1ccccc1)OCCCC[C@H](C)O2 | 36 | 14
O=S(=O)(N[C@H]1CC[C@@H](CCn2cc(-c3ccccn3)nn2)O[C@H]1CO)c1cccc(F)c1 | 1 | 9
C/C=C/c1ccc2c(c1)[C@H]1[C@H](CCN1C(=O)c1cccc(F)c1)[C@H](CO)N2 | 14 | 11
C[C@@H]1CN([C@H](C)CO)C(=O)c2cc(C#C[C@@H](C)O)cnc2O[C@@H]1CN(C)C(=O)Cc1ccccn1 | 5 | 3
O=C(C[C@@H]1CC[C@@H](NC(=O)C2CCC2)[C@@H](CO)O1)NCC1CC1 | 16 | 11
O=C(C[C@@H]1C[C@H]2c3cc(NC(=O)CC4CC4)ccc3O[C@H]2[C@@H](CO)O1)NCC1CC1 | 11 | 7
C[C@@H]1CN([C@@H](C)CO)C(=O)c2cc(C#CC3(O)CCCC3)cnc2O[C@@H]1CN(C)S(=O)(=O)c1cccc(F)c1 | 17 | 11
COc1cccc(CN(C)C[C@H]2OCc3ccccc3-c3c(n(C)c4ccccc34)C(=O)N([C@H](C)CO)C[C@@H]2C)c1 | ? | nt
C[C@H]1CN([C@@H](C)CO)C(=O)c2cc(NS(C)(=O)=O)ccc2O[C@H]1CN(C)C(=O)Nc1ccc(F)cc1 | 1 | -2
C[C@@H](NC(=O)C[C@@H]1CC[C@H]2[C@@H](COc3ccc(NS(=O)(=O)c4ccc(Cl)cc4)cc3C(=O)N2C)O1)c1ccccc1 | -19 | -11
CC(C)NC(=O)N(C)C[C@@H]1OCCCC[C@H](C)Oc2ccc(NC(=O)C3CCCCC3)cc2C(=O)N([C@@H](C)CO)C[C@@H]1C | 8 | -2
C[C@H](CO)N1C[C@H](C)[C@@H](CN(C)C(=O)Nc2ccc3c(c2)OCO3)Oc2c(NC(=O)Nc3ccccc3)cccc2C1=O | 10 | 11
COc1ccc(S(=O)(=O)N(C)C[C@@H]2Oc3ccc(NC(=O)Nc4cccc5ccccc45)cc3CC(=O)N([C@H](C)CO)C[C@@H]2C)cc1 | -1 | -2
O=C(C[C@@H]1C[C@H]2c3cc(NC(=O)c4cccnc4)ccc3O[C@H]2[C@@H](CO)O1)NCc1ccccc1F | 8 | 11
C[C@H](O)C#Cc1ccc2c(c1)O[C@H](CN(C)C(=O)c1ccncc1)[C@@H](C)CN([C@@H](C)CO)S2(=O)=O | 11 | 7
Cc1noc(C)c1NC(=O)N(C)C[C@H]1OCc2cnnn2CCCC(=O)N([C@@H](C)CO)C[C@@H]1C | 1 | -2
C[C@H](CO)N1C[C@H](C)[C@@H](CN(C)C(=O)c2ccc(F)cc2)Oc2ncc(C#C[C@@H](C)O)cc2C1=O | 4 | 2
C[C@@H]1CN([C@@H](C)CO)C(=O)Cc2cc(NC(=O)NC3CCCCC3)ccc2O[C@H]1CN(C)Cc1ccc2c(c1)OCO2 | ? | nt
CO[C@@H]1CN(C)C(=O)c2cc(NC(C)=O)ccc2OC[C@H](C)N(C(=O)C2CCOCC2)C[C@@H]1C | 19 | 8
C[C@@H]1CN([C@@H](C)CO)C(=O)c2cc(NC(=O)c3ccncc3)ccc2O[C@@H](C)CCCCO[C@H]1CN(C)Cc1ccc(C(F)(F)F)cc1 | ? | nt
O=S(=O)(N[C@@H]1CC[C@H](CCn2cc(-c3cccnc3)nn2)O[C@@H]1CO)c1ccccc1 | 15 | -2
C[C@H](CO)N1C[C@H](C)[C@@H](CN(C)Cc2ccc3c(c2)OCO3)Oc2ccc(NC(=O)Cc3cn(C)c4ccccc34)cc2CC1=O | ? | nt
CC(C)(C)[C@H]1C=C(C(=O)N2CCN(Cc3ccc4c(c3)OCO4)CC2)O[C@@H](OCc2ccc(CO)cc2)C1 | -14 | -11
Cc1ccc(S(=O)(=O)Nc2ccc3c(c2)C(=O)N([C@@H](C)CO)C[C@@H](C)[C@H](CN(C)S(=O)(=O)c2ccc(F)cc2)OCCCC[C@H](C)O3)cc1 | -34 | -16
CCC(=O)N1C[C@H]2[C@@H](c3ccccc31)[C@H](CO)N2Cc1cc(F)ccc1F | 4 | 3
COc1ccc(CN(C)C[C@H]2Oc3c(NC(=O)c4nc5ccccc5s4)cccc3C(=O)N([C@@H](C)CO)C[C@@H]2C)cc1 | ? | nt
COc1ccc(NC(=O)Nc2ccc3c(c2)[C@H]2C[C@H](CC(=O)NCc4ccccn4)O[C@@H](CO)[C@H]2O3)cc1 | 1 | 1
CC=Cc1ccc2n(c1=O)C[C@H]1[C@H](CO)[C@@H](C(=O)O)[C@@H]2N1S(=O)(=O)c1ccccc1C (mixture of isomers) | 10 | 13
CC(C)NC(=O)Nc1ccc2c(c1)C(=O)N([C@H](C)CO)C[C@H](C)[C@@H](CN(C)Cc1ccccc1)O2 | 9 | -1
CN(C)C(=O)c1ccc(-c2ccc3c(c2)[C@H]2[C@H](CCN2C(=O)c2ccc(F)cc2)[C@@H](CO)N3C)cc1 | ? | nt
C[C@H](NC(=O)[C@H]1N[C@H]2c3ccc(C4=CCCC4)c(=O)n3C[C@H]2[C@@H]1CO)c1ccccc1 | -3 | 6
C[C@H]1CN([C@@H](C)CO)S(=O)(=O)c2ccc(C#Cc3ccccn3)cc2O[C@@H]1CN(C)Cc1ccc(F)cc1 | -21 | -6

Exported as labelled records: 2 of the compounds above.
COc1ccc(S(=O)(=O)N(C)C[C@@H]2Oc3ccc(NC(=O)Nc4cccc5ccccc45)cc3CC(=O)N([C@H](C)CO)C[C@@H]2C)cc1
- Vaccinia inh: -1
- Vaccinia inh Venus: -2
CC=Cc1ccc2n(c1=O)C[C@H]1[C@H](CO)[C@@H](C(=O)O)[C@@H]2N1S(=O)(=O)c1ccccc1C (mixture of isomers)
- Vaccinia inh: 10
- Vaccinia inh Venus: 13

(continued)
SMILES | Vaccinia inh | Vaccinia inh Venus
Cc1ccccc1-c1ccc(C2[C@@H]3CN(S(=O)(=O)c4ccccc4)C[C@H]2N3)cc1 (stereo partly drawn) | ? | 0
CCS(=O)(=O)N1CCC2(CC1)CN(C(=O)NC(C)C)[C@@H](CO)c1c2c2ccc(OC)cc2n1C | -13 | -14
COCC#Cc1ccc2c(c1)O[C@H](CN(C)CC1CCOCC1)[C@H](C)CN([C@@H](C)CO)S2(=O)=O | 15 | 3
C[C@@H]1CCCCO[C@H](CN(C)Cc2ccc(C(=O)O)cc2)[C@H](C)CN([C@@H](C)CO)C(=O)c2cc(NC(=O)Nc3cccc4ccccc34)ccc2O1 | 19 | 11
O=S(=O)(Cc1ccccc1)N1CCCCN2[C@H](CO)[C@@H](c3ccc(-c4cccnc4)cc3)[C@H]2C1 | 31 | -4
C[C@H]1CN([C@@H](C)CO)C(=O)c2cc(NC(=O)Nc3ccc(F)cc3)ccc2O[C@H]1CN(C)C(=O)Nc1cccc2ccccc12 | 33 | 18
O=C(C[C@H]1CC[C@H]2[C@@H](COC[C@H](O)CN2S(=O)(=O)c2ccccc2)O1)NCC1CCCCC1 | -7 | -9
COc1ccc(S(=O)(=O)Nc2ccc3c(c2)C(=O)N([C@@H](C)CO)C[C@H](C)[C@H](CN(C)C(=O)Nc2c(C)noc2C)O3)cc1 | 1 | 2
O=C(NCC(F)(F)F)[C@@H]1[C@@H](CO)[C@@H]2Cn3c(cccc3=O)[C@H]1N2C(=O)C1CCC1 | 20 | 9
C[C@@H]1CN([C@H](C)CO)C(=O)c2cc(C#CCc3ccccc3)cnc2O[C@H]1CN(C)C(=O)C1CCCCC1 | -19 | -15
Cc1ccc(S(=O)(=O)N[C@H]2C=C[C@H](CC(=O)NCc3ccccc3F)O[C@@H]2CO)cc1 | -9 | -2
C[C@H](CO)N1C[C@H](C)[C@@H](CN(C)Cc2ccc(C(=O)O)cc2)Oc2ccc(NC(=O)NC3CCCCC3)cc2C1=O | 6 | 1
O=C(c1cccnc1)N1C[C@@H]2[C@H](c3ccccc31)[C@@H](CO)N2CC1CCCCC1 | 19 | 11
COc1ccc(S(=O)(=O)N(C)C[C@H]2OCCCC[C@H](C)Oc3ccc(NC(=O)C4CCCCC4)cc3C(=O)N([C@H](C)CO)C[C@@H]2C)cc1 | -13 | -8
CC=Cc1ccc2n(c1=O)C[C@H]1[C@H](CO)[C@@H](C(=O)Nc3ccccc3)[C@@H]2N1C(=O)CC (mixture of isomers) | 14 | 15
C[C@@H]1CN([C@H](C)CO)C(=O)c2cc(NC(=O)Nc3ccc(C(F)(F)F)cc3)ccc2O[C@@H](C)CCCCO[C@@H]1CN(C)Cc1ccncc1 | -23 | -16
C[C@@H]1CN([C@@H](C)CO)C(=O)Cc2cc(NC(=O)CCC(F)(F)F)ccc2O[C@H]1CN(C)Cc1ccc(C(=O)O)cc1 | 10 | 10
C[C@@H]1CCCCO[C@H](CN(C)S(=O)(=O)c2ccc(F)cc2)[C@H](C)CN([C@H](C)CO)C(=O)c2cc(N(C)C)ccc2O1 | -6 | -4
Cc1ccc(S(=O)(=O)NCC[C@H]2CC[C@H](NC(=O)C3CCOCC3)[C@H](CO)O2)cc1 | 5 | 6
Cc1noc(C)c1NC(=O)Nc1ccc2c(c1)C(=O)N([C@H](C)CO)C[C@H](C)[C@@H](CN(C)C(=O)Nc1ccc3c(c1)OCO3)OCCCC[C@H](C)O2 | 1 | -2
C[C@H](CO)N1C[C@H](C)[C@H](CN(C)C(=O)Nc2cccc3ccccc23)Oc2c(NS(=O)(=O)c3ccc(F)cc3)cccc2C1=O | -2 | 9
C[C@@H]1CN([C@@H](C)CO)C(=O)c2cc(NS(=O)(=O)c3cn(C)cn3)ccc2O[C@@H](C)CCCCO[C@@H]1CN(C)S(=O)(=O)c1ccccc1 | 7 | 4
CN(C)CC#Cc1ccc([C@@H]2[C@@H](CO)N3C(=O)CN(C(=O)CN(C)C)C[C@H]23)cc1 | 19 | 8
C[C@@H]1CN([C@H](C)CO)C(=O)Cc2cc(NC(=O)CCC(F)(F)F)ccc2O[C@H]1CN(C)C(=O)Nc1cccc2ccccc12 | 20 | 7

Shown with two lines to a compound: part of the list above.
Each structure is followed by: Vaccinia inh | Vaccinia inh Venus
Cc1noc(C)c1NC(=O)Nc1ccc2c(c1)C(=O)N([C@H](C)CO)C[C@H](C)[C@@H](CN(C)C(=O)Nc1ccc3c(c1)OCO3)OCCCC[C@H](C)O2
  1 | -2
C[C@H](CO)N1C[C@H](C)[C@H](CN(C)C(=O)Nc2cccc3ccccc23)Oc2c(NS(=O)(=O)c3ccc(F)cc3)cccc2C1=O
  -2 | 9
C[C@@H]1CN([C@@H](C)CO)C(=O)c2cc(NS(=O)(=O)c3cn(C)cn3)ccc2O[C@@H](C)CCCCO[C@@H]1CN(C)S(=O)(=O)c1ccccc1
  7 | 4

Later entries
SMILES | Vaccinia inh | Vaccinia inh Venus
C[C@H]1CCCCO[C@@H](CN(C)C(=O)Cc2ccccc2)[C@@H](C)CN([C@@H](C)CO)C(=O)c2cc(NS(=O)(=O)c3cccs3)ccc2O1 | -26 | -19
CC(C)NC(=O)N1[C@@H]2CN(C(=O)C3CC3)c3ccccc3[C@@H]2[C@@H]1CO | -4 | 12
C[C@H](CO)N1C[C@H](C)[C@@H](CN(C)CC2CCOCC2)Oc2cc(C#Cc3cccnc3)ccc2S1(=O)=O | -16 | -10
COCC(=O)Nc1ccc2c(c1)OC[C@H](C)N(CCC(F)(F)F)C[C@@H](C)[C@@H](OC)CN(C)C2=O | -3 | -6
C[C@H](NC(=O)C[C@@H]1C[C@H]2c3cc(N(C)C)ccc3O[C@H]2[C@H](CO)O1)c1ccccc1 | -14 | -4
O=C(Nc1ccc(F)cc1)N[C@H]1CC[C@H](CCNS(=O)(=O)c2cccc(Cl)c2)O[C@H]1CO | -24 | -27
O=C(C[C@@H]1CC[C@@H]2[C@H](COC[C@H](O)CN2C(=O)c2cnccn2)O1)NCc1ccccc1 | 19 | 17
C/C=C/c1ccc([C@@H]2[C@@H](C#N)N(c3nc(-c4ccccc4)cs3)[C@H]2CO)cc1 | 9 | 12
CO[C@H](CN(C)C(=O)c1ccc2c(c1)OCO2)[C@H](C)CN([C@@H](C)CO)S(=O)(=O)c1ccccc1 | 12 | 5
O=C(C[C@@H]1CC[C@H]2[C@@H](COC[C@@H](O)CN2C(=O)Nc2ccc(Cl)cc2)O1)N1CCCCC1 | -7 | 0
O=C(Cc1ccccn1)N1CC(=O)N2[C@@H](CO)[C@H](c3ccc(C#CC4CCCCC4)cc3)[C@@H]2C1 | -17 | -13
COc1ccccc1NC(=O)N[C@H]1C=C[C@@H](CC(=O)N2CCC(Cc3ccccc3)CC2)O[C@H]1CO | -25 | -21
C[C@@H]1CN([C@H](C)CO)C(=O)c2cc(-c3ccc(C(=O)N(C)C)cc3)cnc2O[C@H]1CN(C)C(=O)c1cccnc1 | 12 | 9
CN1CCN(C(=O)C[C@@H]2C=C[C@@H](NC(=O)c3ccc4c(c3)OCO4)[C@@H](CO)O2)CC1 | 16 | 16

Screening results from PubChem BioAssay.
